Bioassay records: PubChem, several laboratories
RanGTP-Imp inh – inhibitors of RanGTP-importin-beta interaction, primary screen, biochemical, FRET, CFP-Ran, YFP-importin-beta, homogeneous. 300,000 tested, 1.1% active. cell-free CFP-Ran/YFP-importin-beta FRET ratio. inhibition, % (no concentration beside the values). AID 2216;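 active = most replicates above 15%; inconclusive = exactly half above 15%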;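 note: 0% = DMSO wells and 100% = Ran loaded with GDP instead of GTP; wells of about 40 µL received 100 nL stock; the first replicate is given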
LANA-H2A inh – blocks KSHV LANA binding to histone H2A/H2B | Q9QR71 | cell-free LANA-H2A/H2B peptide, fluorescence polarization | inhibition, % (test concentration not listed) | 320,000 tested, 0.6% active; in the data active = inhibition mostly above about 10%, no sharp cut-off; inactive = mostly below about 6.7%;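 note: stock transfer was 7.5 nL into about 10 µL; 0% = median of vehicle wells and 100% = median of positive control wells; one replicate is shown; the record names a cut of 25% in any replicate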
Beta2AR agonist – human beta-2 adrenergic receptor agonism by FAP | P07550 | Am2.2-beta2AR cells, FAP receptor internalization, flow cytometry; reference of the scale not given here | response, % (test concentration not listed) | 340,000 tested, 0.43% active;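 active = response above a set limit, near 3 SD of response in nonfluorescent compounds, cut at about 42% in these data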;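 note: stock transfer was 100 nL into about 11 µL; a reference agonist was the positive control; negative values mostly stem from fluorescent compounds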
Target sequence (P07550 whole entry, looked up): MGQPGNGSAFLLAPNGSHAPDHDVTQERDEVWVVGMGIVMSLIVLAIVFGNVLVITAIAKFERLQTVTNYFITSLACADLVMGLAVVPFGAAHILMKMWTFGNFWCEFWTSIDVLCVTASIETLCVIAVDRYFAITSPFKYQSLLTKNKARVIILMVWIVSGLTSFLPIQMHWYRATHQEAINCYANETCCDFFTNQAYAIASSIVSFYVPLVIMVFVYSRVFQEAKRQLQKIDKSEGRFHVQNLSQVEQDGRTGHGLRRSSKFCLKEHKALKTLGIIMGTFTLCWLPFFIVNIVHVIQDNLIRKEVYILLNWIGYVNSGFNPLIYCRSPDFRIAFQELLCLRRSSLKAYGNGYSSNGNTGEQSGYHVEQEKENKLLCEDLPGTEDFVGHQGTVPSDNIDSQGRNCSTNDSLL
HNF4A DNA FP – change in binding of human HNF4 alpha to DNA; activity change, % at 10 µM; P41235; HNF4a-FITC DNA binding, fluorescence polarization, 1 h; 360,000 tested, 0.3% active; AID 1224865; in the data active = activity change above about 30%, passing the limit was not always enough;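 note: controls were the assay level and a saturating level of protein; the project sought stronger binding though the title names inhibitors; some compounds called inactive have numbers as strong as hits; positive values seem to mean higher polarization but the record does not say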
Target sequence (P41235 whole entry, looked up): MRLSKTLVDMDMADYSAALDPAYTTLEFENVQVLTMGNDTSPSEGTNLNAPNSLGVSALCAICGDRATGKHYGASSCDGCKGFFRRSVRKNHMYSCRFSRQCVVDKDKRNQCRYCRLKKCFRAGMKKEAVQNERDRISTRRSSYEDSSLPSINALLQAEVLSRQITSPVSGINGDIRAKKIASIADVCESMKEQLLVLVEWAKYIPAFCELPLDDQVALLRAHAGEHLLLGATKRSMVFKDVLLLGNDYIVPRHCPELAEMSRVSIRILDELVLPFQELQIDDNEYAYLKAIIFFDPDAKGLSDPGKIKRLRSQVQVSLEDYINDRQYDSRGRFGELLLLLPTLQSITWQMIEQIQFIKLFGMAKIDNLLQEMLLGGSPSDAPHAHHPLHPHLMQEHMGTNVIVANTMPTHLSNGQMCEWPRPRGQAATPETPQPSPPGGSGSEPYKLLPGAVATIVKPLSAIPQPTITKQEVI
ALR H2O2 inh – blocks human ALR sulfhydryl oxidase activity | purified ALR, DTT oxidation, H2O2 HRP-luminol luminescence | inhibition, % (no concentration beside the values) | 290,000 tested, 3.8% active | P55789;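 active = mean and each replicate at 75% or more; inconclusive = only one of the two met; inactive = neither met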;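 note: stock transfer was 7.5 nL into about 7.5 µL; 0% = neutral wells and 100% = wells with inactivated enzyme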
Target sequence (P55789 whole entry, looked up): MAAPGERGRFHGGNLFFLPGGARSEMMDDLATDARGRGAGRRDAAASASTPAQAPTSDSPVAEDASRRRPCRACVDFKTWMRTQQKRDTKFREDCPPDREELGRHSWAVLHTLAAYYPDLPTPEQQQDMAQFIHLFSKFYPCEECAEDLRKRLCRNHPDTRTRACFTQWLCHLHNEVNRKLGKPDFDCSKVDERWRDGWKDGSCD
Vif A3G – inhibitors of Vif binding to APOBEC3G peptide, primary screen, biochemical, TR-FRET, GST-Vif 1-94, biotin-A3G peptide, dose response retest (AID 1117319) | TR-FRET GST-Vif / biotin-A3G peptide binding; higher % means a stronger effect; test concentration not given here; strong numbers were not always called active | one-dose inhibition, %; IC50 in µM for titrated hits | 260,000 tested, 0.57% active;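 active = above the screen mean plus three standard deviations and confirmed in dose response; inconclusive = results disagree or hit not tested in dose response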;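 note: Vif residues 1-94 fused to GST binding biotinylated APOBEC3G peptide 110-148; 0% = full assay without inhibitor and 100% = GST in place of GST-Vif; retest series ran down from 100 µM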
Calb FLC – C. albicans growth modulation with fluconazole. C. albicans CaCi-2 (fluconazole-resistant clinical isolate) + fluconazole, Alamar Blue growth, 48 h. growth inhibition, % (test concentration not listed). 300,000 tested, 0.57% active;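 active = most replicates above 75%; inconclusive = exactly half above 75%; inactive = most below 75%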;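 note: all wells also contain fluconazole at 8 µg/ml as a sub-toxic cotreatment; 0% = median of DMSO wells and 100% = median of geldanamycin control wells; wells of about 8 µL received 7.5 nL stock; the first replicate is given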
Active calls of the source: *; ? = inconclusive; . = no result given; & = joins results of further samples.

SMILES | RanGTP-Imp inh | LANA-H2A inh | Beta2AR agonist | HNF4A DNA FP | ALR H2O2 inh | Vif A3G | Calb FLC
COc1ccc2[nH]c(=O)c(CN(CC3CCCO3)S(=O)(=O)c3ccccc3)cc2c1 (stereo not given) | 1.2 | 4.9 | 18 | 2.2 | -6 | -3% | -6
Cc1ccc(SCc2nnc(N)s2)cc1 | -0.6 | -2.6 | 9 | -1.5 | -5 | ? | -2
O=S(=O)(NCC1CCCO1)c1ccc(S(=O)(=O)N(Cc2ccc(F)cc2)C2CCCCC2)cc1 (stereo not given) | -2.5 | -2.8 | 12 | 3.0 | -2 | 1% | -14
O=C(NCc1ccc(OC(F)(F)F)cc1)C1CC2Cn3c(nc4ccccc43)C2N1Cc1ccccc1 (stereo not given) | 1.4 | -1.6 | -6 | 5.1 | . | . | -12
COCCNC(=O)C1CC(c2ccc([N+](=O)[O-])cc2)=NO1 (stereo not given) | ? | 2.6 | 1 | 1.8 | -9 | ? | -7
S=C(Nc1ccc2cn[nH]c2c1)Nc1ccc(Cl)cc1Cl | 3.6 | -2.6 | 2 | 0.6 | -12 | 16% | 25
CCOc1ccc(NC(=O)COC(=O)C2CC2C)cc1 (stereo not given) | . | 1.2 | -7 | -0.1 | -1 | -10% | .
Nc1ccc(N=Nc2ccccc2)c2cccnc12 | 0.4 | 2.5 | 23 | 3.7 | . | 1% | 35
Cc1cc(C(=O)Nc2ccc3c(c2)CCC3)ccc1[N+](=O)[O-] | -0.4 | 5.5 | 8 | 1.0 | -1 | . | -6
CC(/C=N/n1cnnc1)=C\c1ccccc1 | 2.5 | 0.1 | 5 | -4.0 | . | ? | 4
COc1ccc(CC(=O)OCC(=O)Nc2ccc3c(c2)OCO3)cc1 | -0.3 | -6.8 | -5 | 1.0 | -3 | . | -8
CCO[C@@H]1OC(C(=O)N2CCN(Cc3ccc4c(c3)OCO4)CC2)=C[C@H](c2csc3ccccc23)[C@H]1CCCO | -0.8 | 14* | 5 | -1.9 | . | . | 5
CNC(=O)c1c(C)nc(SCC(=O)NCc2ccc(OC)cc2)c(C#N)c1-c1ccco1 | -1.4 | 1.4 | -1 | 3.4 | -51 | 13% | 1
CN(CC(=O)NCc1ccccn1)S(=O)(=O)c1ccc(Cl)cc1 | 0.4 | -3.3 | -4 | -0.2 | -1 | -2% | 1
CCOC(=O)C1(CCOC)CCN(C(=O)c2sccc2C)CC1 | 1.8 | -0.7 | -1 | 0.6 | . | . | -1
Cc1cccc(C)c1NC(=S)NCCSc1ccc(Cl)cc1 | 0.3 | -1.8 | -2 | -1.0 | -13 | . | -15
CC(OC(=O)C1CCCC1)C(=O)Nc1ccc(C(N)=O)cc1 (stereo not given) | 1.9 | 0.8 | 9 | -1.1 | 1 | . | .
Cc1nnc(NC(=O)CN2CC(C)OC(C)C2)s1 (stereo not given) | 1.8 | -5.1 | -4 | 1.4 | 1 | -4% | 2
O=C(OCC1CC(c2ccccc2)=NO1)c1ccco1 (stereo not given) | 2.0 | -0.6 | -3 | -0.5 | 0 | ? | -3
O=C(O)CC1(CC(=O)N2CCOCC2)CCCC1 | 1.9 | 5.5 | -4 | -2.3 | -9 | . | 1
O=C(NNC1CC(c2ccccc2)=NN1C(=O)c1ccccc1)c1ccccc1 (stereo not given) | 5.9 | 2.8 | 0 | -0.2 | . | -1% | 8
COc1cccc(C2Nc3ccccc3NC3=C2C(=O)CC(C)(C)C3)c1OC (stereo not given) | -2.3 | -1.4 | -1 | -2.5 | 99* | -1% | 9
Cc1cc(/C=C2/SC(=S)N(c3ccc([N+](=O)[O-])cc3)C2=O)c(C)n1-c1cccnc1 | 5.3 | -8.3 | 9 | 11 | -9 | 25% | 44
COc1ccc2oc(C(=O)OCC(=O)N3CCN(S(=O)(=O)c4ccccc4)CC3)c(C)c2c1 | 0.9 | 0.9 | 7 | 0.7 | -50 | -1% | 0
COc1cccc(OC)c1C(=O)Nc1cc2c(cc1N1CCOCC1)n(C)c(=O)n2C | 4.8 | 4.9 | -3 | -1.4 | 16 | . | 4
Cc1ccc(-c2noc(CCC(=O)NC3CCCc4ccccc43)n2)cc1 (stereo not given) | -0.3 | -1.3 | -8 | 1.0 | . | -1% | -1
Cc1ccc(-c2cc3nc(-c4ccccc4)cc(N4CCC5(CC4)OCCO5)n3n2)cc1 | 29* | -2.3 | -7 | 3.2 | -9 | 0% | -4
C#CCOCCOCCOCCNc1nc(N2CCN(C(=O)[C@H]([C@@H](C)CC)n3cc([C@@H](N)CC(C)C)nn3)CC2)nc(N2CCN(C(=O)[C@H]([C@@H](C)CC)n3cc([C@@H](N)CC(C)C)nn3)CC2)n1 | 1.5 | 8.3 | -3 | 3.5 | -51 | -5% | 14
CCOc1ccc(N(CC(=O)NCC2CCCO2)S(=O)(=O)c2ccc(SC)cc2)cc1 (stereo not given) | -5.8 | 5.6 | -14 | -6.0 | -7 | 16% | -9
CC1(CCC(=O)N2CCCC(N3CCN(c4ccc(F)cc4)CC3)C2)CC1 (stereo not given) | 7.7 | -0.8 | 1 | -0.2 | 43 | 2% | -7
CCOc1cc2c3c(c1)C1(Nc4ccccc4S1)C(=O)N3C(C)(C)CC2C (stereo not given) | -2.3 | 2.5 | 0 | 1.8 | 4 | -3% | -11
COc1cccc(N2CCN(C(=O)CCNS(=O)(=O)c3ccc4c(c3)c(=O)n(C)c(=O)n4C)CC2)c1 | -1.9 | 2.2 | -5 | 2.0 | 64 | -2% | -5
COCCNC(=O)c1cc(-c2ccc(OC)c(OC)c2)on1 | 2.4 | . | 5 | -1.8 | . | -2% | -1
Cc1ccc(NC(=O)CN2CC(C)SC2=NC2CCCCC2)cc1 (stereo not given) | . | -3.2 | 5&-1 | 0.7&-3.6 | -15 | -1%&14% | .
O=C(NC1CC1)C1=C[C@H](C2CC2)C[C@H](OCCCCO)O1 | -1.8 | -3.3 | -4 | -0.5 | . | . | 5
O=C1c2ccccc2C(=O)N1C/C=C/c1ccccc1 | 0.7 | 0.7 | -3 | -1.0 | -1 | 1% | -1
CCC(=O)Nc1ccc(Cl)c(NC(=O)c2ccc([N+](=O)[O-])cc2)c1 | -0.1 | -2.9 | -11 | -0.3 | -3 | 32% | -3
Brc1ccc(N=C/C=C/C=C/Nc2ccc(Br)cc2)cc1 | . | -2.8 | -1 | 1.6 | -8 | -3% | .
Cc1cccc2c(N=Nc3ccccc3)c(O)[nH]c12 | -5.5 | 4.8 | 0 | 72 | . | . | 18
Cc1ccccc1C(=O)N1CCN(c2ccc(NC(=O)c3ccc([N+](=O)[O-])o3)cc2)CC1 | 0.1 | -6.1 | 18 | -0.5 | -212 | . | -14
COCCNC(=O)CSc1nc2nc(C)cc(C)n2n1 | 4.2 | -3.7 | 1 | -3.5 | -6 | 1% | 18
CC(=O)c1cc(-c2ccccc2)[nH]c1N1CCCC1 | 5.3 | -1.5 | 4 | -2.0 | 49 | 1% | -5
Cc1ccc(-c2cccc(C3CC=CC4C3C(=O)N(Cc3ccccc3)C4c3cc(C)ccc3F)c2)cc1 (stereo not given) | 1.2 | 9.3 | 7 | 1.2 | -5 | 6% | -6
Cc1ccc(NC(=O)N2CCCCCC2)cc1 | 1.1 | 4.2 | -3 | 3.9 | 0 | -1% | -9
Cc1ccc(C(=O)N2CCN(c3ccc(Cl)cc3)CC2)cc1 | -3.8 | 0.3 | -1 | 0.4 | 18 | 0% | 2
O=C(COc1ccc(S(=O)(=O)N2CCCC2)cc1)N1CCCCC1 | 3.4 | 0.2 | 1 | -0.6 | 3 | . | 0
CCCC(=O)NC(=S)Nc1ccc(Cl)cn1 | -5.4 | -3.4 | -4 | -1.2 | . | 5% | -9
O=c1c2ccccc2c(C=NCCCN2CCOCC2)c(O)n1Cc1ccccc1 | ? | -11 | -19 | 1.6 | 3 | -7% | 37
O=C(c1cccc(F)c1)N1CCN(CC2CC3C=CC2C3)CC1 (stereo not given) | . | -5.6 | -1 | -2.1 | . | -5% | 15
COc1ccccc1C(=O)N=Nc1c(O)[nH]c2ccc([N+](=O)[O-])cc12 | . | . | 5 | -2.3 | . | -2% | .
O=S(=O)(C=C(c1ccccc1)c1ccccc1)c1ccccc1 | 1.3 | 15* | -1 | 0.1 | 8 | 3% | -4
COc1ccc(NC(=O)CN2C(=O)NC(C)(c3ccccc3)C2=O)cc1Cl (stereo not given) | 2.0 | 6.8 | 2 | 0.2 | -1 | . | -4
CN1CCC(=NNC(=O)C(=O)NCc2ccccc2)CC1 | -0.4 | 1.8 | 5 | -4.9 | -7 | 2% | 2
Cc1ccc(Cl)cc1NC(=O)N[C@@H](C)C(=O)O | -1.3 | -1.1 | -5 | 0.2 | -3 | -6% | -7
Cc1cc(CN2CCCC(N3CCc4ccccc4C3)C2)cc(C)c1O (stereo not given) | -1.5 | -2.3 | 11 | -2.3 | . | . | -3
COc1cccc(N2C(=O)C3CCCN3C2c2ccc(F)cc2)c1 (stereo not given) | 1.3 | 1.4 | -1 | 3.2 | -3 | -4% | -7
CN1CCN(c2nc(-c3cc4ccccc4o3)cs2)CC1 | -1.3 | -0.6 | 0 | -1.8 | -27 | -8% | -26
CCOc1ccc(Nc2nc(Cc3nnc(SCC(=O)NCc4ccco4)n3CC)cs2)cc1 | -1.2 | 2.2 | -23 | -0.1 | 11 | 7% | 41
CCc1c(C)c2ccc(O)c(CN(C)C)c2oc1=O | 9.4 | 3.4 | 3 | 1.6 | 19 | 2% | 2
NC(=O)[C@@H]1CC2(CC(c3cccc(NC(=O)[C@@H]4CCC(=O)N4)c3)=NO2)CN1C(=O)Cc1ccc([N+](=O)[O-])cc1 (stereo not given in full) | ? | 0.2 | 1 | 0.2 | . | 5% | -2

Sorted by value in LANA-H2A inh (ascending): some entries from above
mol,LANA-H2A inh
O=C(c1cccc(F)c1)N1CCN(CC2CC3C=CC2C3)CC1 (stereo not given),-5.6
Cc1cc(CN2CCCC(N3CCc4ccccc4C3)C2)cc(C)c1O (stereo not given),-2.3
NC(=O)[C@@H]1CC2(CC(c3cccc(NC(=O)[C@@H]4CCC(=O)N4)c3)=NO2)CN1C(=O)Cc1ccc([N+](=O)[O-])cc1 (stereo not given in full),0.2
CN1CCC(=NNC(=O)C(=O)NCc2ccccc2)CC1,1.8

Remaining list, next part
SMILES | RanGTP-Imp inh | LANA-H2A inh | Beta2AR agonist | HNF4A DNA FP | ALR H2O2 inh | Vif A3G | Calb FLC
CC(NC(N)=O)C(=O)OCC(=O)c1ccc(-c2ccccc2)cc1 (stereo not given) | 3.2 | 1.2 | 1 | -6.2 | -7 | -3% | -4
O=C(Nc1nnc(Cc2ccccc2)s1)c1cccs1 | -0.8 | 4.4 | -14 | -0.4 | -12 | -25% | -1
C/C(=N/NC(=O)c1cccs1)c1ccco1 | ? | -0.1 | 4 | -0.2 | -11 | 3% | -3
CCOc1cc(C(=O)Nc2ccc(S(=O)(=O)Nc3nnc(CC)s3)cc2)cc(OCC)c1OCC | 1.5 | -2.5 | -24 | 0.4 | -2 | 1% | 3
O=C(Nc1nnc(-c2ccccc2F)s1)C1CCCO1 (stereo not given) | 5.2 | -2.3 | -6 | -5.2 | -5 | 15% | -6
Cc1c(C(=O)OC2CCCC2)[nH]c2c1C(=O)CC(c1ccco1)C2 (stereo not given) | 0.0 | -2.2 | 15 | -2.9 | . | 22% | 5
O=C(Nc1nc(-c2ccccc2)c(-c2ccccc2)o1)c1ccc(F)cc1 | 3.3 | -2.0 | -3 | -0.5 | 3 | 1% | -1
COC(=O)c1cn(NC(=O)Cc2cccc(OC)c2)c(=O)c2ccccc12 | -3.9 | 2.2 | 1 | -0.1 | -3 | 19% | 6
